High-throughput results: PubChem BioAssay, National Center for Advancing Translational Sciences (NCATS)
TRPML1 ag – human mucolipin-1 channel agonism | activation, % (no concentration beside the values) | 410,000 tested, 0.12% active | Q9GZU1 | TRPML1-expressing cells, Ca2+ dye fluorescence, FDSS; host cell line not named in the record; reference of the full effect not given here | AID 624414; in the data active = activation above about 50%; inconclusive = about 30% to 50%; inactive = below about 30%; note: 0% is about no effect; the text of the record puts the active cut at 80%
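Cells: TRPML1-DL, 1X Tet inducer, ~16 h at 37 degrees C/5% CO2. Dye: ABD Ca8 no-wash + quencher, 45-90 min RT. Read: 10 s baseline, compound add, 110 s agonist phase; 54-4 EC80 (4uM final), 110 s antagonist phase.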
TRPML1 inh – inhibitors of human TRPML1 channel; 390,000 tested, 0.02% active; Q9GZU1; activity change, negative = inhibition, % (concentration not given with the values); AID 624415; TRPML1-inducible cells, Ca2+ dye fluorescence, FDSS; active compounds read low; inhibition of EC80 agonist-evoked calcium signal; in the data active means activity change below about -50%; inconclusive means about -30% to -50%; inactive means above about -30%;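 note: stimulus is agonist 54-4 at its EC80 concentration; % is set by controls: 0 for no effect and ±100 for the full control effect; the text of the record puts the active cut at -80%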
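Tet-induced TRPML1-DL cells loaded with Ca8 no-wash calcium dye were read kinetically on FDSS. Compound addition was followed by EC80 agonist 54-4 (4 uM final); inhibition was read over 110 s.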
D2 potentiator – human D2 receptor positive allosteric modulation; P14416; DiscoveRx D2 beta-arrestin cells, luminescence, 90 min; 100% = 57 uM dopamine signal; potentiation, % (no concentration beside the values); 360,000 tested, 0.23% active; AID 624464; active = potentiation of 50% or more; inconclusive = 30% to 50%; inactive = 30% or less;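 note: compound concentration not given in the record; tested on top of an EC20 dose of dopamine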
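PathHunter beta-arrestin assay in DiscoveRx D2 cells. Compounds were added with an EC20 of dopamine (50 nM final) for 90 min at 37 deg C. Luminescence was read 1 h after detection reagent, with 57 uM dopamine as the EC100 control.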
PINK1 modulator – modulators of PINK1 expression. PINK1 immunofluorescence, high-content cytometry, 24 h. Potency, µM (series often up to 76.6 µM), inactives show top-dose activation (PINK1 increase), most hits filed as activators. 410,000 tested, 0.2% active. AID 624263; active = well fitted activation curve with a large enough effect; inconclusive = small, poorly fitted or top-dose-only effect; inactive = flat fitted curve, though single readings scatter; cell line not stated here;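 note: potency is the fitted concentration of half-maximal effect; % of control where 0% means no effect; nearly all actives have a fitted effect of over 65% in size; a mitochondrial uncoupler was the plate control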
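A stable cell line was treated with compounds at 5 concentrations for 24 hours, with CCCP as control. PINK1 levels and mitochondrial localization were measured by immunofluorescence with mitochondrial, cell and nuclear markers after fixation, read by laser-scanning cytometry.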
Six1-Eya2 blk – blocks human Six1 binding to Eya2. Q15475+O00167. AlphaScreen GST-Six1/His-Eya2 binding, biochemical; active compounds read low; control for the full effect not named in the record. activity change, % (test concentration not listed). 360,000 tested, 0.56% active. AID 651725; in the data active = activity change below about -65%; inconclusive = about -30% to -65%; inactive = above about -30%; note: % is set by controls: 0 for no effect and ±100 for the full control effect
Target sequence (O00167 whole entry, looked up): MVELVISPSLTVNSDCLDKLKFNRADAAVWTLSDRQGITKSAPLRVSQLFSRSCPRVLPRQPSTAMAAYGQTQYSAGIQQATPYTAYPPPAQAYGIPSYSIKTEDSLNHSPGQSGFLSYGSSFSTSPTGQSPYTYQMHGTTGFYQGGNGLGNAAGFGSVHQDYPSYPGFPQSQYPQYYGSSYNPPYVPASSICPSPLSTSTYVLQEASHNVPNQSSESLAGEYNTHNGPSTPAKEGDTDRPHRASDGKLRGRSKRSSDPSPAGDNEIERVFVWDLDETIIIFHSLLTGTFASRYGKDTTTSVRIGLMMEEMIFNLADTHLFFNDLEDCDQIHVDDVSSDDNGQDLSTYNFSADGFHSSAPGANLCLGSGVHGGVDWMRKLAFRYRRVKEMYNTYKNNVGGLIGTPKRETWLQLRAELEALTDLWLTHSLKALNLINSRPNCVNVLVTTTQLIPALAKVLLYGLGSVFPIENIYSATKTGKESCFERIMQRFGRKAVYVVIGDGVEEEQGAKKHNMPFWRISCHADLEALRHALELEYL
Target sequence (Q15475 whole entry, looked up): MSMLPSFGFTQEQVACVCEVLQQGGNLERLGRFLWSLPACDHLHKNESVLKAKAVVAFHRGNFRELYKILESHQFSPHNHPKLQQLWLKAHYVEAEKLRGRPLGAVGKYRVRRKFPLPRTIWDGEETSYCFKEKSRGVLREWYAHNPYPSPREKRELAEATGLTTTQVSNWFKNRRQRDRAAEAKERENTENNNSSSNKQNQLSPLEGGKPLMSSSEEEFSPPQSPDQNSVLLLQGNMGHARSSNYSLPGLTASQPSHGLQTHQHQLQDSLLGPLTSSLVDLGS
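Compounds are tested against tagged Six1 and Eya2 proteins bridged by glutathione donor and nickel acceptor beads; after a one-hour incubation at 37 °C without light, AlphaScreen emission is recorded.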
D2 agonist – activates the human D2 dopamine receptor; DiscoveRx PathHunter D2 beta-arrestin, luminescence, 90 min; 100% = 57 uM dopamine signal; activation, % (concentration not given with the values); 360,000 tested, 0.084% active; AID 624465; in the data active = activation above about 40%; inconclusive = about 15% to 40%; inactive = below about 15%; note: compound concentration not given in the record; the text of the record calls up to 30% inactive
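Agonist mode: compounds alone added to overnight-plated D2 PathHunter cells for 90 min at 37 C, with 57 uM final dopamine (EC100) defining full response. Beta-arrestin recruitment detected by chemiluminescent reagent, read after 1 h at ambient temperature.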
The depositor's hits bear a star; ? = inconclusive; . = no result given; [ ] = dose if it differs, or a comment.

SMILES	TRPML1 ag	TRPML1 inh	D2 potentiator	PINK1 modulator	Six1-Eya2 blk	D2 agonist
NC(=O)C1CCN(c2cc(Cl)nc(N)n2)CC1	-0.5	11	-9	-0.7%	-3	-1.4
Cc1nn(C)cc1S(=O)(=O)N1CCCCC1C (configuration not stated)	0.3	22	-7	-0.9%	-2	2.1
CCOCCCNC(=O)C1CCCN1C(=O)Nc1ccccc1[N+](=O)[O-] (configuration not stated)	-0.7	10	-5	-0.6%	15	-2.1
CC1(C)C2CCC13CS(=O)(=O)N[C@@H]3C2 (some centres not stated)	2.5	-13	-12	-2.9%	0	-1.4
CCSC1=C(C#N)C(c2ccc3c(c2)OCO3)C2=C(CCCC2=O)N1 (configuration not stated)	3.9	55	3	0.1%	0	-1.1
CC(C)Cc1nn2c(=O)cc(COC(=O)c3ccc(NC(=O)c4cccs4)cc3)nc2s1	1.9	-68*	.	-0.4%	.	.
Cc1ccccc1Nc1nc(-c2ccccc2)c(C(=O)Nc2cccnc2)s1	3.3	72	-3	-1.3%	5	-3.1
Cn1c(=O)n(C)c2cc(N3CCOCC3)c(NC(=O)c3cccc(Cl)c3)cc21	0.4	-5	-2	-0.5%	6	2.7
C[C@H](NC(=O)c1nc[nH]c1C(=O)N[C@@H](CCCCN)C(=O)OC(C)(C)C)C(=O)OC(C)(C)C	-0.2	6	-14	-0.6%	-1	-2.0
CSc1sc(C(=O)O)c(C)c1C(C)=O	-0.4	14	-8	-0.6%	-1	-5.8
COc1ccccc1CCNC(=O)c1ccc(Br)s1	1.4	-9	-19	-0.4%	2	1.1
O=C(O)C1=C[C@H](C2CC2)C[C@H](OCc2ccc(CO)cc2)O1	-0.1	-11	-31	-0.8%	-2	1.6
COc1cccc(C(=O)NNC(=O)c2cccnc2)c1	-0.4	2	-2	4.0%	8	-2.4
COc1cc2[nH]c(=S)n(Cc3ccco3)c(=O)c2cc1OC	0.7	2	-3	7.4%[38.3 µM]	-19	0.9
CC1CCN(CC(O)COc2ccc(-c3ccccc3)cc2)CC1 (configuration not stated)	1.4	36	-26	2.6%	-3	2.6
CCn1c(SCC(=O)Nc2cc(C)on2)nnc1-c1ccco1	-0.5	-9	-16	0.5%	-1	-4.0
COc1ccc(Cn2c(SCc3ccc(C(=O)NCc4ccccc4F)cc3)nc3cccnc32)cc1	0.1	28	.	4.6%	.	.
CCOc1cc(C(=O)NCC(=O)N/N=C/c2sccc2C)cc(OCC)c1OCC	-0.4	6	-3	4.0%	6	-5.1
COc1ccc(-c2cc(C(=O)Nc3cc(C)on3)c3ccccc3n2)c(OC)c1	0.8	26	-16	0.3%	-24	2.5
Cc1cc(C)c(NC(=O)CNC(=O)COC(=O)Cc2cccs2)c(C)c1	-0.2	3	15	0.8%	-25	-5.2
CCOC(=O)C1CCCN(C(=O)c2cc(S(=O)(=O)N3CCCCC3)ccc2Cl)C1 (configuration not stated)	0.3	6	-3	0.3%	6	-4.4
CCOC(=O)CSc1nnc(-c2ccc(NS(=O)(=O)c3ccc(C)cc3)cc2)o1	-0.3	51	-20	8.1%	-1	-2.7
CCN(CC(=O)Nc1ccccc1C(F)(F)F)C(=O)c1ccc(-n2nc(C)c(CCC(=O)OC)c2C)cc1	3.6	-2	3	2.7%	0	3.2
COC(=O)COc1cccc(NC(=O)c2cccs2)c1	1.4	-1	-4	-0.4%	-1	-0.2
CS(=O)(=O)N1CCCC(C(=O)NCCCN2CCC(Cc3ccccc3)CC2)C1 (configuration not stated)	0.0	11	-24	?	-1	-1.3
Cc1ccc(C(=O)NCc2ccco2)cc1S(=O)(=O)N1CCOCC1	-0.9	5	1	-0.8%	0	-1.0
Cc1ccc(-c2nnc3c(C(F)(F)F)nc4ccccc4n23)cc1	-1.8	32	-4	-0.3%	5	-5.8
Cc1ccc(SCC(=O)OC(C)C(=O)NC2(C#N)CCCCC2)cc1 (configuration not stated)	1.9	5	9	-1.7%	7	-3.9
CCC(C)(C)C1CCc2[nH]nc(C(=O)NC3CCCC3)c2C1 (configuration not stated)	2.4	-11	-2	6.0%	34	2.6
CCCCN(CC)CCNC(=O)c1cc2c(=O)[nH]c3ccccc3c2s1	-0.2	-2	-12	0.4%	-25	2.3
c1ccc2c(-c3ccncc3)c[nH]c2c1	0.0	-10	6	-6.1%	1	5.2
CCO/C(C)=C1\C(=O)N(CC)c2ccccc21	0.8	-3	0	1.0%	4	-4.0
COC(=O)C1=C(C(=O)OC)[C@@H]2N(C)c3ccccc3[C@@]23C[C@@H](C(=O)OC)N(C(=O)CC(C)C)C3=N1	0.7	-14	-1	-0.8%	-28	2.6
O=C(NCCN1CCCC1=O)C1CCC(=O)N(CCc2cccc(F)c2)C1 (configuration not stated)	-0.2	-9	-12	1.0%	2	4.6
O=C(c1ccc(Cl)cc1)c1cnc(-c2ccc(Cl)cc2)s1	-0.1	20	2	10%[38.3 µM]	3	-2.0
O=C(Cn1cnc2ccccc21)NCCCN1CCOCC1	0.0	3	6	1.1%[38.3 µM]	4	-1.1
CCCC(=O)Nc1ccc(Cl)c(NC(=O)c2cccnc2Cl)c1	0.5	-18	-30	-2.4%	-5	-1.9
CCOc1ccc(CNC(=O)c2ccc3c(c2)c(C)c(C)n3Cc2ccccc2)cc1OC	1.1	-6	.	0.4%	.	.
COc1cc(NS(=O)(=O)c2ccc(NC(=O)c3ccc(Cl)cc3Cl)cc2)nc(OC)n1	-0.5	8	.	2.1%	.	.
CCN(CC(=O)N1CCN(Cc2ccccc2)CC1)S(=O)(=O)c1ccc(F)cc1	-0.2	11	-42	1.2%	3	0.5
OC[C@@H]1[C@@H](c2ccc(F)cc2)C(c2cccc(Cl)c2)=NN1c1ccccc1	-1.1	8	4	0.1%	62	1.5
O=C(C1COc2ccccc2O1)N1CCc2ccccc2C1 (configuration not stated)	-0.3	1	-3	0.4%	-6	-2.8
COC(=O)C1=C(C)N(CCc2c[nH]c3ccc(OC)cc23)C(=O)C1	0.4	-17	6	-0.3%	25	3.1
CCOC(=O)C1CCN(C(=O)c2ccc(OCC(=O)Nc3cccc(C(F)(F)F)c3)c(OC)c2)CC1	4.1	16	2	-4.0%	1	11
COCOCCn1cc(CN2CCS(=O)(=O)N(Cc3ccc(-c4cccc(N(C)C)c4)cc3)C(CC(C)C)C2=O)nn1 (configuration not stated)	0.2	9	-8	2.7%	-8	-2.5

Rewritten field by field: entries from further up
Molecule: O=C(Cn1cnc2ccccc21)NCCCN1CCOCC1
  TRPML1 ag = 0.0 | TRPML1 inh = 3 | D2 potentiator = 6 | PINK1 modulator = 1.1%[38.3 µM] | Six1-Eya2 blk = 4 | D2 agonist = -1.1
Molecule: CSc1sc(C(=O)O)c(C)c1C(C)=O
  TRPML1 ag = -0.4 | TRPML1 inh = 14 | D2 potentiator = -8 | PINK1 modulator = -0.6% | Six1-Eya2 blk = -1 | D2 agonist = -5.8
Molecule: CCCC(=O)Nc1ccc(Cl)c(NC(=O)c2cccnc2Cl)c1
  TRPML1 ag = 0.5 | TRPML1 inh = -18 | D2 potentiator = -30 | PINK1 modulator = -2.4% | Six1-Eya2 blk = -5 | D2 agonist = -1.9
Molecule: CCC(C)(C)C1CCc2[nH]nc(C(=O)NC3CCCC3)c2C1 (configuration not stated)
  TRPML1 ag = 2.4 | TRPML1 inh = -11 | D2 potentiator = -2 | PINK1 modulator = 6.0% | Six1-Eya2 blk = 34 | D2 agonist = 2.6

Remaining list, next part:
SMILES	TRPML1 ag	TRPML1 inh	D2 potentiator	PINK1 modulator	Six1-Eya2 blk	D2 agonist
Cc1cc(C)nc(N2CCCC(C(=O)Nc3nnc(C(C)(C)C)s3)C2)n1 (configuration not stated)	1.4	-14	-11	1.8%	1	1.6
CC(NC(=O)NCCCC(=O)O)(C(F)(F)F)C(F)(F)F	0.1	-4	-1	-2.5%	11	2.2
Cc1ccc(C(=O)NCC(C)NC(=O)c2ccc(C)c(C)c2)cc1C (configuration not stated)	1.3	11	-2	0.6%	-1	2.1
C/C(=N\NC(=O)c1ccco1)c1ccc(C(=O)O)s1	1.0	31	-2	-1.3%	5	1.7
CCc1nnc(NC(=O)c2sc3nc4c(cc3c2N)CCCCC4)s1	0.1	-16	28	1.2%	24	2.6
COc1cccc(CNC(=O)CCC2CCCN(C(=O)c3ccoc3C)C2)c1 (configuration not stated)	-0.6	-8	-4	-0.2%	0	0.3
CCOc1cc(C2C(C(=O)OC)=C(C)NC3=C2C(=O)c2ccccc23)ccc1O (configuration not stated)	-0.8	31	.	3.6%	.	.
CCOc1ccc(S(=O)(=O)N(C(=O)c2ccco2)c2cc3sc(=O)oc3c3ccccc23)cc1	-0.7	8	150*	1.7%	-16	?
CN(C)CCCNCCCCNC(=O)/C=N/O	6.9	12	-12	-0.8%	3	-2.8
C=CCNC(=S)Nc1ccc(Br)cc1F	1.3	-8	-6	8.6%	-1	5.5
O=NN(CCCl)C(=O)NCC1=C[N+](=O)CC=C1	-0.5	.	.	1.4%	11	.
COc1ccc(C(=O)NCc2nnc(SCC(=O)N3CCC(C)CC3)o2)cc1OC	3.0	25	-13	-2.7%	2	-2.1
O=C(NCCc1ccc(F)cc1)c1ccc(S(=O)(=O)N2CCCC2)cc1	-0.6	-5	1	-0.1%	28	1.0
O=C(O)CCCNc1ccc([N+](=O)[O-])c(NCCCC(=O)O)n1	0.0	-2	-6	0.4%	-1	-6.1
C=CCN(CC=C)CCOc1cccc2ccccc12	-1.1	7	-14	18%	-7	1.4
Cc1nc2ccc(NC(=O)N3CCN(c4ccccn4)CC3)cc2s1	-0.6	66	-11	-0.6%	-2	-2.7
O=C(c1ccco1)N1CCN(Cc2cccc(F)c2)CC1	1.8	23	23	-0.1%	-4	60*
Cc1ccc(-n2c(SCC(=O)Nc3nccs3)nc3c(c2=O)SCC3)cc1	1.0	17	-2	13%	-4	-2.4
CC(C)(C)Cc1nc(-c2ccccn2)no1	-0.5	29	-9	-0.2%	-1	-3.4
COc1ccccc1CN1CC(C(=O)NCc2ccc(N3CCCC3=O)cc2)CCC1=O (configuration not stated)	0.4	4	-6	0.2%	-1	-2.4
FC(F)(F)c1nc(N2CCCC2)ncc1-c1nnnn1-c1ccc(Cl)cc1	0.9	2	-13	5.3%	16	-1.3
COc1ccc(N2C(=O)CSC2c2ccc3c(c2)OCO3)c(OC)c1 (configuration not stated)	3.4	-4	19	3.6%	0	-2.7
Cc1ccc(NC(=O)N2CC3CCCN3c3ccccc32)cc1Cl (configuration not stated)	-0.4	-3	.	2.3%	.	.
CC(=O)Nc1sc(C)c(C)c1C(=O)OCC(=O)Nc1cc(S(C)(=O)=O)ccc1Cl	.	.	-10	6.7%	-1	0.3
CC1(C)Cc2ccccc2-c2nnc(-c3ccco3)n21	0.8	1	-17	3.4%	0	-4.1
O=C(c1cc(=O)[nH]c2ccccc12)N1CC=C(c2ccccc2)CC1	0.4	-6	-17	2.2%	-16	-0.4

Entries above that bear a hit mark in D2 agonist:
| Compound | TRPML1 inh | D2 potentiator | PINK1 modulator | Six1-Eya2 blk | D2 agonist |
| --- | --- | --- | --- | --- | --- |
| O=C(c1ccco1)N1CCN(Cc2cccc(F)c2)CC1 | 23 | 23 | -0.1% | -4 | 60* |
